Choline anaer gr: blocks anaerobic gram-negative growth on choline; calls only; 55,000 tested, 0.2% active; Gram-negative bacterium anaerobic choline minimal medium, absorbance growth; active compounds read low; many inactives read as strong as hits in the columns shown;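 active = growth z-score on choline under -2 at 7 or 20 h with little or no fall on glycerol, limits in tiers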;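 note: stock transfer was 300 nL into about 50 µL; the organism is E. coli; final concentration not given here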
Choline anaer gr early: recorded beside Choline anaer gr, whose call it bears; z-score; measured here: choline growth z-score, timepoint 1;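 score of optical density at 7 h as mean of two plates; lower means less growth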
An asterisk follows results filed as active; i = inactive; & = joins results of further samples.

entry	canonical_smiles	Choline anaer gr	Choline anaer gr early
1	CCC(C)n1nnc2cc(S(=O)(=O)N(C)CC(=O)NCCN(C)C)ccc21 (stereo unspecified)	i	-1.26
2	CCOC(=O)C1=C(O)C(=O)N(Cc2ccccc2)C1	i	0.06&-0.38
3	COc1ccc(NC(=O)CSc2nc3ncccc3[nH]2)c(OC)c1	i	-0.48
4	COc1ccc(NC(=O)c2ccc(SCCN3CCCCC3)nc2)cc1	i	-1.14
5	Cc1cc(NC(=O)c2ccc(-c3noc(C4CC4)n3)cc2)no1	i	0.17
6	Cc1sc(-c2cc(C(F)(F)F)on2)cc1S(=O)(=O)Nc1ccc2c(c1)OCCO2	i	1.33
7	CC1CCN(CC2CCN(C(=O)NC3CCCC3)CC2)CC1	i	-0.19
8	Cc1ccc(NCC(O)Cn2nnnc2-c2ccccc2)cc1C (stereo unspecified)	i	1.03
9	COc1cc2c(C(=O)N3CCN(c4ccccc4)CC3)c(C)n(-c3ccccc3)c2cc1Br	i	-1.51
10	COc1ccc(NC(=O)NC2CCN(c3cc(C)nc4ncnn34)CC2)cc1	i	2.35
11	O=C(Nc1ccc(Cn2cnc(-c3nc(-c4ccc(Cl)cc4)no3)c2)cc1)c1ccc2c(c1)OCO2	i	-0.55
12	CCCNC(=O)c1[nH]c2ccccc2c1NC(=O)c1ccc(C)cc1	i	2.29
13	O=C(Nc1ccc2c(c1)OCCO2)NC1CCN(c2ccccc2)C1=O (stereo unspecified)	i	-0.15
14	CC(C)c1ccc(NC(=O)c2ccc(S(=O)(=O)c3ccc(Br)cc3)nc2)cc1	i	2.52
15	OC(CNCc1ccc(-c2ccc(Br)cc2)o1)c1ccccc1 (stereo unspecified)	i	0.03
16	COc1ccc(CNC(=O)CCC(=O)n2ncc3c(C)cccc32)cc1	i	0.07
17	COc1ccccc1-c1nnc2sc(-c3cc(CC(C)C)[nH]n3)nn12	i	0.13
18	Cc1ccccc1CNc1ccc2[nH]c(=O)[nH]c2c1	i	-0.39
19	CCc1ccccc1NC(=O)Nc1ccc(CCc2nc3ccccc3n2C)cc1	i	-1.22
20	COc1ccc(CN2CCc3nc(SCC(=O)Nc4cc(C)ccc4C)[nH]c(=O)c3C2)cc1	i	-0.98
21	CCOC(=O)c1c(NC(=O)CSc2nc3c([nH]c4ccccc43)c(=O)n2C)sc2c1CCC2	i	-1.01
22	Cc1ccc(S(=O)(=O)Nc2cc3c(cc2N2CCOCC2)n(C)c(=O)n3C)cc1	i	0.34
23	CCOC(=O)c1nc(Nc2ccc(F)cc2F)c2ccccc2n1	i	-0.06
24	COc1ccccc1-c1nnc2sc(-c3cc(C)on3)nn12	i	-1.92
25	N#Cc1nc(-c2ccc(S(=O)(=O)N3CCCC3)cc2)oc1N1CCCC1	i	0.23
26	COCCCN1CCn2c(nc3cc(NC(=O)Nc4ccccc4)ccc32)C1	i	0.11
27	Oc1ccc(OCc2ccccc2)cc1	i	0.05
28	CC1CN(c2c(F)c(F)c3c(=O)c(C(=O)O)cn(C4CC4)c3c2F)CC(C)N1 (stereo unspecified)	i	-4.73
29	Cc1c(C)n(C)c2ccc(C(=O)NCc3ccccc3Cl)cc12	i	0.41
30	CC(O)Cc1nsc(NC(=O)c2ccc(C(C)(C)C)cc2)n1 (stereo unspecified)	i	0.99
31	COc1ccc(Cn2cnc3c([nH]c4ccc(C)cc43)c2=O)cc1	i	-0.18
32	O=C(NCCn1c(-c2ccc(F)cc2)nc2cccnc21)Nc1ccc(Cl)cc1	i	2.05
33	CCc1nc2nc(C)cc(N3CCN(c4cc(C)ccc4C)CC3)n2n1	i	0.9
34	O=C(Nc1ccc2nccnc2c1)c1ccc(F)cc1	i	0.48
35	O=C(c1ccccc1F)N1CCN(c2cc(=O)n3nc(-c4ccccc4)sc3n2)CC1	i	-0.83
36	CCN1CCN(c2ncnc3sc(C(=O)NCCc4c[nH]c5ccc(OC)cc45)c(C)c23)CC1	i	0.08
37	Cc1cc(C2CCCN2C(=O)NC(C)(C)C)on1 (stereo unspecified)	i	-0.11
38	Cc1[nH]c(-c2nnc(C3CCC3)o2)c(C)c1S(=O)(=O)N1CCN(C(C)C)CC1	i	0.57
39	Cc1ccccc1Nc1ncnc2c1cnn2C	i	-1.44
40	Cc1cccc(C2CCCN2C(=O)c2cc(C)no2)c1 (stereo unspecified)	i	-0.78
41	CC1CCN(S(=O)(=O)c2cc(C(=O)N3CCN(c4ccc(F)cc4)CC3)n(C)c2)CC1	i	-2.04
42	O=C(NCCc1nc2cccnc2n1C1CCCC1)Nc1ccc2c(c1)OCCO2	i	-0.2
43	Cc1cc(C)cc(-c2nnc3ccc(Cl)nn23)c1	i	0.26
44	C=CCOc1ccc(C2CC(=O)Nc3c2c(C)nn3-c2nc3ccc(OC)cc3s2)cc1OC (stereo unspecified)	i	-1.07
45	Cc1ccc(NC(=O)c2nnc(C3CCCN(S(=O)(=O)c4c(C)nn(C)c4C)C3)s2)cc1 (stereo unspecified)	i	-1.12
46	Cc1cc2c(cc1S(=O)(=O)N1CCCC1C(=O)Nc1cccc(C)c1C)OCC(=O)N2 (stereo unspecified)	i	-1.78
47	Nc1ncnc2nc(-c3ccc(N4CCOCC4)nc3)cc(-c3cccc(Br)c3)c12	i	0.49
48	CCOC(=O)c1cc(NC(=O)N2CCN(c3ccc(OC)cc3)CC2)c(C)nc1C	i	-0.29
49	O=C(NCc1cccc(Cl)c1)c1cccc(NC(=O)N2CCCCc3ccccc32)c1	i	-0.44
50	Cc1noc2nc(C)n(Cc3ccc(F)cc3)c(=O)c12	i	-1.19
51	COc1ccc(OC)c(S(=O)(=O)N2CCN=C2N2CCN(c3cccc(Cl)c3)CC2)c1	i	-0.32
52	COc1ccc(C(=O)NCC(c2ccc(OC)cc2)N2CCCCC2)cc1 (stereo unspecified)	i	0.09
53	COc1cc(OC)cc(N2C(=O)CN(S(C)(=O)=O)CC2(C)C(=O)NC2CCCC2)c1 (stereo unspecified)	i	-2.13
54	Cc1nc2c(C)cccn2c(=O)c1NC(=O)CC1CCCCC1	i	-0.48
55	O=C(NC1CCCC1)c1cccc(Nc2ncc(-c3cccc(F)c3)cn2)c1	i	-0.14
56	CCCOc1ccc(CNC(=O)Cn2cnc3c([nH]c4ccc(C)cc43)c2=O)cc1	i	0.29
57	O=C(NCc1ccccc1)c1cnc2sc(N3CCCCC3)nn2c1=O	i	0.34
58	COc1ccccc1Oc1cc(-c2cccc(C(=O)Nc3ccc(Br)cc3)c2)ncn1	i	0.44
59	COc1ccccc1N1CCN(c2nc3ccccc3n3c(C)nnc23)CC1	i	-0.65
60	CCc1ccc(CNC(=O)CSc2nc3cccnc3n(CC)c2=O)cc1	i	2.49

Reprinted from the part before: six entries, followed by the next part.
entry	canonical_smiles	Choline anaer gr	Choline anaer gr early
55	O=C(NC1CCCC1)c1cccc(Nc2ncc(-c3cccc(F)c3)cn2)c1	i	-0.14
56	CCCOc1ccc(CNC(=O)Cn2cnc3c([nH]c4ccc(C)cc43)c2=O)cc1	i	0.29
57	O=C(NCc1ccccc1)c1cnc2sc(N3CCCCC3)nn2c1=O	i	0.34
58	COc1ccccc1Oc1cc(-c2cccc(C(=O)Nc3ccc(Br)cc3)c2)ncn1	i	0.44
59	COc1ccccc1N1CCN(c2nc3ccccc3n3c(C)nnc23)CC1	i	-0.65
60	CCc1ccc(CNC(=O)CSc2nc3cccnc3n(CC)c2=O)cc1	i	2.49
61	CCCc1noc(Cn2cnc3c([nH]c4ccc(C)cc43)c2=O)n1	i	0.18
62	Cn1nc(COCc2ccccc2)c2c1CCN(C(=O)Cc1cccc(F)c1)C2	i	-0.73
63	Cc1ccc(Nc2ncc(C(=O)Nc3ccccc3F)c3ccccc23)cc1Cl	i	0.21
64	CCN(CC)C(=O)CSc1nc(-c2ccc(OC)cc2)nc2c1Cc1cccc(OC)c1O2	i	-1.34
65	CCc1ccc(NC(=O)N2CCN(CCn3c(C(F)(F)F)nc4cccnc43)CC2)cc1	i	-1.55
66	CCCCOc1ccc(S(=O)(=O)Nc2ccc(Nc3nc(C)cc(NCC)n3)cc2)cc1	i	-4.44
67	Cc1ccnc(N2CCCC(C(=O)N3CCCCC3)C2)n1 (stereo unspecified)	i	0.09
68	Cc1cc(C(=O)Nc2ccc(F)c(Cl)c2)no1	i	-0.94
69	CC(=O)O[C@H]1C[C@@H]2CC[C@@H]3[C@H](CC[C@@]4(C)[C@H]3C[C@H]([N+]3(C)CCCCC3)[C@@H]4OC(C)=O)[C@@]2(C)C[C@@H]1[N+]1(C)CCCCC1	i	0.7&0.35&0.16
70	COc1ccc2c(c1)C=C(C(=O)NCCN(C)C)CO2	i	-0.54
71	CCCN1CCN(CCCN2C(=O)c3cc4oc(C)cc4n3CC2(C)C(=O)NC2CCCCC2)CC1 (stereo unspecified)	i	0.17
72	O=C1C(Cc2ccccc2)NC(=S)N1c1ccccc1 (stereo unspecified)	i	0.87
73	COC(=O)C1=CN(c2cc(C)cc(C)c2)c2cc(F)c(F)cc2S1(=O)=O	i	-1.17
74	Cc1noc2c1C(c1ccc(Cl)cc1)C1=C(CC(c3ccc(O)cc3)CC1=O)N2 (stereo unspecified)	i	0.58
75	CC(=O)NNC(=O)N1Cc2ccccc2Oc2ccc(Cl)cc21	i	-0.24&0.47
76	CCC(C(=O)NCCCN(C)c1ccccc1)N1C(=O)CCn2nc(C)cc21 (stereo unspecified)	i	-0.03
77	CCc1nn(-c2ccccc2)c2nc(-c3ccccc3)nc(SCC(=O)NCc3ccccc3)c12	i	-0.29
78	O=C(CCc1nc(CSc2nc(-c3ccccc3)cs2)no1)Nc1ccc(F)c(Cl)c1	i	2.84
79	Cc1nn(-c2ccccc2)cc1-c1noc(C(=O)NC2CCCC2)n1	i	-0.33
80	CCc1cc2c(N3CCCC(C(=O)NCCN4CCC(C)CC4)C3)ncnc2s1 (stereo unspecified)	i	0.21
81	COc1ccc(CNCc2cccc3ccccc23)cc1	i	-1.56
82	O=C(c1cc(-c2ccc3c(c2)OCO3)on1)N1CCCC1c1cccc(F)c1 (stereo unspecified)	i	1.38
83	CCc1ccccc1NC(=O)Nc1ccc(CCc2nc3ccccc3[nH]2)cc1	i	-0.66
84	CCOC(=O)c1ccccc1NC(=O)NCc1cc(=O)n2nc(-c3ccccc3)sc2n1	i	0.52
85	Cn1c(CN2CCN(C(=O)c3ccc(C(C)(C)C)cc3)CC2)nc2cc(C(=O)N3CCCC3)ccc21	i	0.58
86	CC1CCN(S(=O)(=O)c2ccc3ncn(CC(=O)Nc4cnc5ccccc5c4)c(=O)c3c2)CC1	i	-0.07
87	COc1ccc(OC)c(C2N=C(Nc3ccc(F)cc3)Nc3nc(C)cc(=O)n32)c1 (stereo unspecified)	i	-0.04
88	CC1Cc2cc(S(=O)(=O)N3CCN(C4CCCCC4)CC3)ccc2N1C(=O)C1CC1 (stereo unspecified)	i	0.74
89	CCc1ccccc1N1C(=O)c2sc3nc(C)cc(COC)c3c2NC1C (stereo unspecified)	i	-0.01
90	CCOC(=O)c1nc2ccccc2nc1N1CCC2(C1)OCCO2	i	-0.88

Gathered by group: the entries above containing two or more sulfur atoms
entry	canonical_smiles	Choline anaer gr	Choline anaer gr early
6	Cc1sc(-c2cc(C(F)(F)F)on2)cc1S(=O)(=O)Nc1ccc2c(c1)OCCO2	i	1.33
21	CCOC(=O)c1c(NC(=O)CSc2nc3c([nH]c4ccccc43)c(=O)n2C)sc2c1CCC2	i	-1.01
45	Cc1ccc(NC(=O)c2nnc(C3CCCN(S(=O)(=O)c4c(C)nn(C)c4C)C3)s2)cc1 (stereo unspecified)	i	-1.12
78	O=C(CCc1nc(CSc2nc(-c3ccccc3)cs2)no1)Nc1ccc(F)c(Cl)c1	i	2.84

(further entries)
entry	canonical_smiles	Choline anaer gr	Choline anaer gr early
91	O=C(NCCCn1c(C(F)(F)F)nc2cccnc21)Nc1ccc(Br)cc1F	i	0.64
92	CCC(=O)Nc1cccc(-c2noc(C3CCCN(C(=O)c4ccc(F)c(Cl)c4)C3)n2)c1 (stereo unspecified)	i	-0.06
93	CC(C)n1cnc2nc(CSc3ccccc3NC(=O)COc3ccccc3F)cc(=O)n21	i	2.04
94	CN1CCN(C(=O)c2cc3n(n2)CC(C)(C(=O)NC2CCCCC2)N(C)C3=O)CC1 (stereo unspecified)	i	-0.45
95	CCOC(=O)c1[nH]c(C)c(CN(Cc2ccc(C)cc2)C(=O)NC2CCCC2)c1C	i	-0.3
96	Cc1ccc(CN2CC(=O)N(c3ccc(C)cc3)[C@@H]3CS(=O)(=O)C[C@@H]32)cc1	i	-1.83
97	Cc1ccc(C)c(N2CCN(CCCNC(=O)c3c(-c4ccncc4)noc3C)CC2)c1	i	-0.24
98	COc1ccccc1NC(=O)c1nnn(-c2ccc3noc(-c4ccccc4)c3c2)c1C	i	0.27
99	CC(C)c1ccc(C2CC(=O)Nc3c2cnn3-c2nc3ccccc3s2)cc1 (stereo unspecified)	i	2.78
100	Cc1csc(-n2nc(C)c(CC(=O)N3CCCC3)c2C)n1	i	0.05
101	CCc1cc(C2CCCN2C(=O)c2cc(C(C)C)on2)on1 (stereo unspecified)	i	1
102	CC(=O)N1CCc2cc(S(=O)(=O)CCC(=O)NCCc3ccc(Cl)cc3)ccc21	i	-1.13
103	COc1ccc(NC(=O)C2CCCN(c3nc4ncccc4n4cccc34)C2)cc1 (stereo unspecified)	i	0.41
104	COCc1nnc(C(=O)Nc2cccc(C(=O)NCCc3c[nH]c4ccc(Cl)cc34)c2)s1	i	1.4
105	Fc1cccc(CNc2nc(-c3nnc(-c4ccccc4)o3)nc3ccccc23)c1	i	-1.06
106	Cc1nn(-c2ccc(-c3ccccc3)nn2)c(C)c1S(=O)(=O)N1CCCC(C)C1 (stereo unspecified)	i	0.87
107	N=C1C(c2nc3ccccc3s2)=C(O)CN1CCc1c[nH]c2ccccc12	i	1.7

Screening data as filed in PubChem BioAssay.

This is a subset; rates above refer to the full screens.
